From PubChem
RecA splice inh: Mtb RecA intein splicing inhibitors, primary screen, biochemical, fluorescence, HTS | Protein RecA (Mycobacterium tuberculosis (strain ATCC 25618 / H37Rv)), P9WHJ3 | cell-free RecA intein splicing | inhibition, %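 (about 9 µM by stock and volumes)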 | 290,000 tested, 0.75% active; in the data active = inhibition above about 30%; inconclusive = no clear call, values can overlap the other calls;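 also: 0% = vehicle wells and 100% = reference inhibitor control wells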
Target sequence (P9WHJ3 whole entry, looked up, canonical isoform): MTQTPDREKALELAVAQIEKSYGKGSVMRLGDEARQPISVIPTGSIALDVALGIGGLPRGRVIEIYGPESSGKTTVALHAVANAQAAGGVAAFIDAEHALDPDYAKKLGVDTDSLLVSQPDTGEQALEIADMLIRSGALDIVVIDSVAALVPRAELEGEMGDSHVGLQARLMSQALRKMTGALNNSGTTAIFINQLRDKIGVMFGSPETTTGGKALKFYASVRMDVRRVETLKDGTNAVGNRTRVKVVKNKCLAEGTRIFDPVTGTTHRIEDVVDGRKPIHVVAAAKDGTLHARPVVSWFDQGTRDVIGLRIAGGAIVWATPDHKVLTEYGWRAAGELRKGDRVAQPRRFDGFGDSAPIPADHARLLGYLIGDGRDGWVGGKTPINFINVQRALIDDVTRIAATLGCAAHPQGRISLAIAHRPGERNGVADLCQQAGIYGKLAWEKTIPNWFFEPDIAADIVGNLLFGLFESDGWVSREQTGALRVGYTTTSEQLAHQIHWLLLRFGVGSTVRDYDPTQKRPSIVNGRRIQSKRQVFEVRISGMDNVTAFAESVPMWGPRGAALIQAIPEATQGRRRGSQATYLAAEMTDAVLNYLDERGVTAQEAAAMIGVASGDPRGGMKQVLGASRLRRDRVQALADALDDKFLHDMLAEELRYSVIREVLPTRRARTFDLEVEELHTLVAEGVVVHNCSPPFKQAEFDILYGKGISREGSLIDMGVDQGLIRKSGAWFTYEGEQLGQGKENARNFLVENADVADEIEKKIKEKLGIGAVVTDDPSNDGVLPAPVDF
Arbovirus inh: antivirals against arbovirus infection, primary screen, cell-based, full library, 10K replicate subset; inhibition, % at 10 µM; arbovirus infection cell-based antiviral screen; AID 1251, 2008; 200,000 tested, 0.37% active;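 active = inhibition from about 30%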;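 also: bluetongue infection of BSR cells; cell survival read as ATP light after 72 h; 0% = infected wells without compound and 100% = uninfected wells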
Mtb bLac sens: beta-lactam sensitization of Mtb H37Rv, H37Rv; M. tuberculosis H37Rv growth with meropenem, percent inhibition; hits of this screen are not shown here; inhibition, % at 25 µM; 330,000 tested, 0.27% active; AID 434955, 2010;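 active = about 74% or more and at least 40 points above the plate without the antibiotic, then above 30% in a dose series; inconclusive = first-round hits that could not be retested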;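 also: growth measured after seven days incubation then overnight dye step; 0% = bacteria only wells and 100% = bacteria with antibiotic; twin plates without the antibiotic show which effects depend on it; some results filed as inactive read as strong as hits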
YopH inh: YopH tyrosine phosphatase inhibitors, primary screen, biochemical, fluorescence Ex485/Em525 | inhibition, %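 (about 10 µM by stock and volumes)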 | 140,000 tested, 0.16% active | YopH tyrosine phosphatase [Yersinia enterocolitica] | AID 898, 2007;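 active = inhibition of 50% or more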;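 also: controls were vehicle for no effect and minimum signal wells for full effect; inactives centre near -20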
Mtb H37Rv: M. tuberculosis H37Rv growth inhibitors, H37Rv strain (AID 1626). 220,000 tested, 0.95% active. M. tuberculosis H37Rv growth inhibition; higher % means a stronger effect. one-dose inhibition, % at 10 µM; IC50 in µM for titrated hits;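 active = confirmed in a dose series; inconclusive = inhibition above 80% but not taken into the dose series; inactive = below 80% or under 30% at every dose of the series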;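 also: bacteria incubated seven days before Alamar blue readout; 0% = bacteria only wells and 100% = bacteria with antibiotic wells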
Arbovirus inh repeat: recorded beside Arbovirus inh, whose call it bears; inhibition, %; measured here: 10K subset replicate screen; many hits read low in the repeat;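 first of two repeat runs on a subset; 0% = infected and 100% = uninfected wells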
Starred values were filed as active, the others as inactive; ? = inconclusive; / = not tested or not shown. This is a subset; count on the stated rates, not on these rows.

SMILES	RecA splice inh	Arbovirus inh	Mtb bLac sens	YopH inh	Mtb H37Rv	others
C[N+](C)(C)CCCN(Cc1ccc2c(c1)OCO2)C(=O)NC1CCCCC1	0.3	/	-9	/	-6%
NC(=O)c1ccc(NC(=O)COC(=O)c2ccc3c(c2)OCCO3)cc1	-1.4	/	-6	/	3%
COc1ccc(C(=O)Nn2cnnc2)cc1OC	0.8	/	-8	/	2%
O=C(Cc1ccccc1)Nn1cnc2ccccc21	2.5	2	8	-38	6%
Cc1cc(C)nc(-n2nc(C)cc2NC(=O)CNC2CCCCC2)n1	0.4	2	-4	-33	-4%
CC(C)NS(=O)(=O)c1ccc(OCC(=O)N2CCCC2)cc1	/	7	-1	-25	-5%
CCOc1ccc(/C=C2/Sc3ccc(C(=O)NCC4CCCO4)cc3N(C)C2=O)cc1OC (centres undefined)	0.0	/	91	/	/
COc1ccc(CCNC(=O)CC(C)(C)CC2=NS(=O)(=O)c3ccccc3N2)cc1OC	-1.8	/	-3	/	/
CCCCn1c(N2CCCC2)nc2c1c(=O)[nH]c(=O)n2C	-2.6	/	?	/	/
Cc1ccc(-n2nc(C(=O)N/N=C/c3cccc(C(F)(F)F)c3)c3ccccc3c2=O)cc1C	-10	-6	15	-17	-4%

Reprinted at random: 4 entries already listed
SMILES	RecA splice inh	Arbovirus inh	Mtb bLac sens	YopH inh	Mtb H37Rv	others
COc1ccc(CCNC(=O)CC(C)(C)CC2=NS(=O)(=O)c3ccccc3N2)cc1OC	-1.8	/	-3	/	/
Cc1cc(C)nc(-n2nc(C)cc2NC(=O)CNC2CCCCC2)n1	0.4	2	-4	-33	-4%
O=C(Cc1ccccc1)Nn1cnc2ccccc21	2.5	2	8	-38	6%
C[N+](C)(C)CCCN(Cc1ccc2c(c1)OCO2)C(=O)NC1CCCCC1	0.3	/	-9	/	-6%

(cont.)
SMILES	RecA splice inh	Arbovirus inh	Mtb bLac sens	YopH inh	Mtb H37Rv	others
O=c1c2ccccc2ncn1CCCSc1ccc(Cl)cc1	7.6	-2	-6	-16	0%
CC(c1ccccc1)n1c(-c2ccccc2F)n[nH]c1=S (centres undefined)	-1.8	/	1	/	/
O=C(CN1CCC(O)(c2ccc3c(c2)OCO3)CC1)NC1CCCCC1	-0.9	-5	11	/	-7%
COc1cc(NC(=O)c2cccnc2SC)cc(OC)c1OC	-1.7	3	0	/	5%
CC(=O)Nc1cc2c(cc1[N+](=O)[O-])OCCO2	-2.9	2	13	/	4%
O=C(Cn1nnc2ccccc21)C1CC1	-1.7	-1	-4	-47	-1%
COc1cc(C(=O)NNC(=O)Cc2ccc(S(=O)(=O)N3CCOCC3)s2)cc(OC)c1OC	1.1	/	-11	/	/
CCc1nnc(NC(=O)CSc2nc3c([nH]c4ccccc43)c(=O)n2CCOC)s1	-0.9	/	-12	/	/
COCCNC(=O)C(c1ccc(Cl)cc1)N(CCOC)C(=O)CCC(=O)Nc1nccs1 (centres undefined)	2.7	-2	2	/	-7%
CCO[C@@H]1OC(C(=O)NCc2ccccc2)=C[C@H](c2ccc3c(c2)OCO3)[C@H]1CCCO	-1.3	-2	-3	/	-7%
COc1ccc(C(=O)/C=C/c2cn(CN3CCN(C)CC3)c3ccccc23)cc1	/	7	99	-5	/
CCn1cc(C(=O)NCCC(=O)NCCO)c(=O)c2cc3c(cc21)OCO3	-0.7	/	-1	/	/
CCSc1nnc([C@@H](NC(=O)OC(C)(C)C)C(C)C)o1	-1.5	/	-13	/	-4%
CC(=O)CSc1ccc(C(=O)O)cn1	1.3	2	-2	-28	-6%
CCOC(=O)N1CCN(c2ncnc3nc[nH]c23)CC1	0.5	4	0	-44	0%	Arbovirus inh repeat=-2
O=C(NC1CC2CCC(C1)N2Cc1ccco1)c1ccccc1 (centres undefined)	1.8	-3	0	-12	-12%
O=C(COC(=O)Cc1ccccc1)Nc1ccc(F)cc1	-1.5	0	-2	/	1%
Cc1ccccc1NC(=S)NCc1cccs1	3.0	4	2	-2	-8%
COc1ccc(N2C(=O)NC(=O)/C(=C/c3ccc([N+](=O)[O-])s3)C2=O)cc1	5.0	/	100	/	-11%
O=C(Cc1nn[nH]n1)NCCC1=CCCCC1	-16	14	3	0	4%
CC(C)C(NS(=O)(=O)c1ccccc1)C(=O)N1CCN(C(=O)c2ccco2)CC1 (centres undefined)	-0.1	/	-12	/	/
CCCc1nc2c(nnn2Cc2ccccc2Cl)c(=O)[nH]1	-3.5	5	-2	/	1%
CC(c1ccco1)N(C(=O)COc1ccc(Cl)cc1)c1ccccn1 (centres undefined)	/	2	-9	-10	6%
CCOc1ccc(NC(=O)CN(C)CC(=O)Nc2ccccc2SC)cc1OCC	9.6	9	1	-21	5%
O=C(CNC(=S)NC(=O)c1ccccc1Br)c1ccccc1	-0.2	-2	-5	/	4%
COc1ccccc1CNC(=O)CSc1ccc(-c2ccncc2)nn1	0.2	18	-3	/	11%
CN(CC(=O)Nc1ccc(Cl)c(C(F)(F)F)c1)C(=O)c1ccc(OCC2CCCO2)cc1 (centres undefined)	12	/	-4	/	/
O=C(C1CC1)N1N=C(c2ccc(Cl)cc2)CC1(O)C(F)(F)F (centres undefined)	-2.0	/	22	/	/
COc1ccc(/C(C)=N/NC(=O)c2cc(C)[nH]n2)c(OC)c1	2.2	/	-9	/	/
CN1/C(=C\C(=O)Nc2cccc(Cl)c2)C(C)(C)c2ccccc21	11	-17	80	-18	0%

Arranged by length of the SMILES (falling): 6 of the compounds above.
SMILES	RecA splice inh	Arbovirus inh	Mtb bLac sens	YopH inh	Mtb H37Rv	others
CN(CC(=O)Nc1ccc(Cl)c(C(F)(F)F)c1)C(=O)c1ccc(OCC2CCCO2)cc1 (centres undefined)	12	/	-4	/	/
CC(C)C(NS(=O)(=O)c1ccccc1)C(=O)N1CCN(C(=O)c2ccco2)CC1 (centres undefined)	-0.1	/	-12	/	/
CCOc1ccc(NC(=O)CN(C)CC(=O)Nc2ccccc2SC)cc1OCC	9.6	9	1	-21	5%
COc1ccc(/C(C)=N/NC(=O)c2cc(C)[nH]n2)c(OC)c1	2.2	/	-9	/	/
CC(c1ccco1)N(C(=O)COc1ccc(Cl)cc1)c1ccccn1 (centres undefined)	/	2	-9	-10	6%
CCCc1nc2c(nnn2Cc2ccccc2Cl)c(=O)[nH]1	-3.5	5	-2	/	1%

Further entries follow.
SMILES	RecA splice inh	Arbovirus inh	Mtb bLac sens	YopH inh	Mtb H37Rv	others
Nc1cc(-c2cccc([N+](=O)[O-])c2)[nH]n1	8.4	-5	2	-33	5%
CCCc1sc(N/N=C/c2ccccn2)nc1-c1ccc(Br)cc1	7.7	-11	100	18	?
O=C(CC(=O)c1ccccc1)Nc1cc([N+](=O)[O-])ccc1Cl	1.7	/	0	/	/
Cc1ccc(-c2cc(C(=O)OCC(=O)N(C)C3CCS(=O)(=O)C3)c3ccccc3n2)o1 (centres undefined)	-10	0	3	/	1%
Cc1cccc(C(=O)NC2CCN(S(=O)(=O)c3ccccc3)CC2)c1	-0.8	-2	-2	/	0%
COc1cccc(CNc2ccc(S(N)(=O)=O)cc2)c1OCc1ccccc1F	9.0	9	1	-5	4%
O=c1c(Cl)c(N2CCN(c3ccccc3)CC2)cnn1C12CC3CC(CC(C3)C1)C2	-2.0	-3	6	-3	0%
Cc1ccc2cc3c(N)c(C(=O)N4CC(=O)Nc5ccccc54)sc3nc2c1	0.0	-18	-7	-26	/
Cc1nc2ccc(NS(=O)(=O)c3ccc(F)c(C)c3)cc2[nH]1	-0.2	/	-3	/	/
Nc1c(Cl)cc(-c2csc(N3CCCC3c3nc4cc(Cl)c(Cl)cc4n3CCCO)n2)cc1Cl (centres undefined)	3.5	/	24	/	-8%
C#CCOCCOCCOCCNc1nc(N2CCN(C(=O)[C@H]([C@@H](C)CC)n3cc([C@@H](N)Cc4ccc(O)cc4)nn3)CC2)nc(N2CCN(C(=O)[C@H]([C@@H](C)CC)n3cc([C@@H](N)Cc4ccc(O)cc4)nn3)CC2)n1	0.6	-9	64	/	2%
CSc1nc2ccccc2n1CC(=O)Nc1ccc(C)c(C)c1	1.5	0	0	16	3%
C/C(=N/NC(=O)c1cc(C(C)C)[nH]n1)c1cccs1	-4.4	-7	-2	-18	-1%
CC(C)(C)c1nc(N2CCN(C(=O)c3ccco3)CC2)c2nnn(Cc3ccccc3)c2n1	1.7	-33	96	-6	-2%
NC(=O)c1ccc(NC(=O)CNC(c2ccccc2)c2ccccc2)cc1	-2.0	/	-4	/	/
CCOC(=O)CCCNC(=O)c1cncc(O)c1	0.9	2	2	-25	/
CC1CC(C)CN(C(=O)C(NS(=O)(=O)c2ccc3c(c2)oc(=O)n3C)C(C)C)C1 (centres undefined)	/	15	-6	-58	-5%	Arbovirus inh repeat=0
CCN(CC(=O)N1CCCC1)S(=O)(=O)c1ccc(OC)cc1	-0.8	/	11	/	/
Cc1cc(NC(=O)Cn2c(=O)c3c(ncn3CCC(C)C)n(Cc3ccccc3)c2=O)no1	/	-14	?	-28	8%
CC(C)CCNC(=O)COC(=O)c1ccc(Br)o1	-0.1	1	10	-29	10%
O=C(N/N=C/C(Br)=C/c1ccccc1)C1CC1	/	11	10	/	6%
COc1ccc(NC(=O)COC(=O)C2CC3C=CC2C3)cc1 (centres undefined)	-1.6	2	6	/	1%
O=[N+]([O-])c1ccc(F)cc1OCc1cccc(S(=O)(=O)N2CCOCC2)c1	-2.0	/	-9	/	/
OC(c1cccs1)c1nccc2ccccc12 (centres undefined)	2.1	-2	24	-28	-1%
c1cc(C2CCCCC2)ccc1Oc1nc(N2CCOCC2)nc(N2CCOCC2)n1	6.0	7	0	-13	-8%
Cc1nc(SCC(=O)NCc2ccc3c(c2)OCO3)c(C#N)c2c1CCCC2	2.5	-9	6	-32	8%
COc1ccccc1N1CCN(C2=Nc3cccc4cccc2c34)CC1	-2.3	-10	96	/	5%
N#Cc1c(-c2ccccc2)cc(-c2ccccc2)nc1SCC(=O)NCC(=O)O	0.1	/	-2	/	-14%
CCOC(=O)c1c(Cc2ccc(Cl)cc2)c[nH]c1C	0.6	-1	-1	-27	-12%
Cc1ccc(-n2c(SCC(=O)N3CCCCC3)nc(O)cc2=O)cc1	1.5	/	-12	/	-2%
COC(=O)c1ccccc1NS(=O)(=O)c1ccc(Cl)nc1	-0.9	0	-6	/	3%
CCc1ccc(NS(=O)(=O)c2ccc3oc(=O)ccc3c2)cc1	2.5	/	-10	/	/
